TRPV1 PAM = human TRPV1 potentiation | Q8NER1 | TRPV1-expressing cells, Fluo-8 calcium influx, capsaicin EC20 potentiation; host cell line not named in the record; control for the full effect not named in the record | potentiation, % at 8.33 µM | 320,000 compounds, 0.02% hits | AID 540277; active means potentiation above 80%; inconclusive means 30% to 80%; inactive means below 30%; note: 0% is about no effect
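Cells expressing TRPV1 were dye-loaded with Fluo-8 and read kinetically: 10 s baseline, 3 min after compound (agonist portion), then 2 min after EC20 capsaicin (allosteric enhancer portion). Calcium-bound dye fluorescence at 480/520 nm.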
TRPML1 agonist = agonists of human TRPML1 channel. Q9GZU1. TRPML1-expressing cells, Ca2+ dye fluorescence, FDSS; host cell line not named in the record; reference of the full effect not given here. activation, % (no concentration beside the values). 410,000 compounds, 0.12% hits. AID 624414; in the data active = activation above about 50%; inconclusive = about 30% to 50%; inactive = below about 30%; note: 0% is about no effect; the text of the record puts the active cut at 80%
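Calcium fluorescence on an FDSS kinetic reader gave the read-out. Tet-induced TRPML1-DL cells were plated overnight, dye-loaded (Ca8 with quencher, 45-90 min, room temperature, dark), then read 110 s after compound addition, and again 110 s after 4uM final 54-4 (EC80).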
CtBP-E1A blk = CtBP/E1A binding inhibition; AlphaScreen GST-E1A/His-CtBP binding, 1536-well; hits give low values; control for the full effect not named in the record; AID 651724; 340,000 compounds, 0.49% hits; activity change, % (concentration not given with the values); in the data active means activity change below about -65%; inconclusive means about -30% to -65%; inactive means above about -30%; note: % is set by controls: 0 for no effect and ±100 for the full control effect
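Steps: dispense buffer (Tris pH 8.0, NaCl 300 mM, TCEP 1 mM, BSA, Tween 20); add 5X protein mix (GST-E1A, His-CtBP, 125 nM each); pin 23 nL compound; 2 h at 37 °C, dark; add 5X beads (50 ug/mL); 1 h; read.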
Six1-Eya2 blk = inhibitors of human Six1/Eya2 interaction. Q15475+O00167. AlphaScreen GST-Six1/His-Eya2 binding, biochemical; hits give low values; control for the full effect not named in the record. activity change, % (no concentration beside the values). 360,000 compounds, 0.56% hits. AID 651725; in the data active = activity change below about -65%; inconclusive = about -30% to -65%; inactive = above about -30%; note: % is set by controls: 0 for no effect and ±100 for the full control effect
Target sequence (O00167 whole entry, looked up): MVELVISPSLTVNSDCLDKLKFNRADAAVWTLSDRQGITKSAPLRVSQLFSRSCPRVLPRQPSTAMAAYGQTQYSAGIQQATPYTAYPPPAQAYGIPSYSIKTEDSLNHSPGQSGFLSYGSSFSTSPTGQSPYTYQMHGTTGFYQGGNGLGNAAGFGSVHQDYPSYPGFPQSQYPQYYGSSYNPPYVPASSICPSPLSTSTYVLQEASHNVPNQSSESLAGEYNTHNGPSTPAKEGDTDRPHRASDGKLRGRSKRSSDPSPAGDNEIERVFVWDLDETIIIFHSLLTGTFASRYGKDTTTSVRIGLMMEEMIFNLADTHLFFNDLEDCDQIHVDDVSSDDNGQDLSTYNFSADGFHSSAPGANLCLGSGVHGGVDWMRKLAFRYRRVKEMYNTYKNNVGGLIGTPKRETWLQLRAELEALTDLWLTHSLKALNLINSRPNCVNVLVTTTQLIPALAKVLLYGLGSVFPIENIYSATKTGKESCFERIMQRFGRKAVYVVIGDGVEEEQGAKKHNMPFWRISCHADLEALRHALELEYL
Target sequence (Q15475 whole entry, looked up): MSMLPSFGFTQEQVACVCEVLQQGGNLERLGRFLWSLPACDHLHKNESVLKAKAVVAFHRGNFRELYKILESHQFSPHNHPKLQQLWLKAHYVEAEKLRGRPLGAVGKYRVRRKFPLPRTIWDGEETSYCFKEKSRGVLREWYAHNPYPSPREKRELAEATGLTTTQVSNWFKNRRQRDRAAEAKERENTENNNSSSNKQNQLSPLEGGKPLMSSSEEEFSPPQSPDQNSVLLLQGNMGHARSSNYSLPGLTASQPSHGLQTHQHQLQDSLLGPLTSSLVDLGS
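Homogeneous AlphaScreen proximity assay pairing GST-Six1 with His-tagged Eya2 (added as 5X mix: 250 nM and 500 nM) in 50 mM Tris pH 8.0, 300 mM NaCl, 1 mM TCEP. Glutathione donor and nickel acceptor beads; 1 h, 37 °C, dark.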
TRPML1 inh = human mucolipin-1 channel inhibition | 390,000 compounds, 0.02% hits | Q9GZU1 | TRPML1-inducible cells, Ca2+ dye fluorescence, FDSS; hits give low values; inhibition of EC80 agonist-evoked calcium signal | activity change, negative = inhibition, % (concentration not given with the values); in the data active means activity change below about -50%; inconclusive means about -30% to -50%; inactive means above about -30%;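 note: stimulus is agonist 54-4 at its EC80 concentration; % is set by controls: 0 for no effect and ±100 for the full control effect; the text of the record puts the active cut at -80%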
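Calcium fluorescence in TRPML1-DL cells induced overnight with Tet: a 110 s read after compound pin addition, then a 110 s antagonist read after challenge with 54-4 at 4 uM final (EC80).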
D2 PAM = positive allosteric modulators of human D2 dopamine receptor. P14416. DiscoveRx D2 beta-arrestin cells, luminescence, 90 min; 100% = 57 uM dopamine signal. potentiation, % (no concentration beside the values). 360,000 compounds, 0.23% hits. AID 624464; active = potentiation of 50% or more; inconclusive = 30% to 50%; inactive = 30% or less;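 note: compound concentration not given in the record; tested on top of an EC20 dose of dopamine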
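PathHunter beta-arrestin assay in DiscoveRx D2 cells. Compounds were added with an EC20 of dopamine (50 nM final) for 90 min at 37 deg C. Luminescence was read 1 h after detection reagent, with 57 uM dopamine as the EC100 control.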
* = called active by the depositor; u = inconclusive; x = not tested or not shown; & = joins results of further samples.

SMILES | TRPV1 PAM | TRPML1 agonist | CtBP-E1A blk | Six1-Eya2 blk | TRPML1 inh | D2 PAM
Cc1ccc(Nc2ncnc3c2oc2ccccc23)cc1 | -6 | 2.0 | 5 | 6 | -6 | -5
Cc1ccccc1NC(=O)C1CCC(=O)N1 (stereo not given) | -2 | 0.2 | 0 | 4 | 14 | 0
CCn1c(=O)c(C(=O)NNS(=O)(=O)c2ccc(Cl)cc2)c(O)c2ccccc21 | 9 | 0.9 | 3 | -15 | 4 | -7
COCCCNS(=O)(=O)c1cc2c3c(c1)C(C)C(=O)N3CCC2 (stereo not given) | u | 0.1 | x | -2 | 4 | -2
O=C(CN1CCCC1)Nc1ccc(Br)cc1[N+](=O)[O-] | 11 | 1.4 | -28 | -22 | 21 | 0
Cc1nc(/N=C(\N)NC(=O)c2ccccc2)nc2ccccc12 | 26 | -0.6 | u | u | 5 | -17
CCC(=O)N1CC23C=CC(CC2CC12CCCCC2)O3 (stereo not given) | 3 | 0.0 | 1 | 4 | 28 | -4
Cn1ccc(C(=O)OCC(=O)Nc2ccccc2)n1 | 0 | 0.0 | 22 | 9 | 2 | 0
Cc1ccccc1C1=N/C(=C/c2cccnc2)C(=O)O1 | 9 | 0.4 | 4 | 2 | -2 | -13
Cc1cccc2cc(CN(Cc3cccs3)Cc3nnnn3Cc3ccccc3)c(=O)[nH]c12 | 3 | 1.3 | 4 | -9 | 11 | -22
O=C1C2C3C=CC(C3)C2C(=O)N1c1nc2ccccc2s1 (stereo not given) | 30 | 0.0 | 10 | 0 | -1 | -8
C/C(=N/NS(=O)(=O)c1ccc(CC(C)C)cc1)c1ccncc1 | -11 | 0.7 | -3 | 1 | 10 | -11
Nn1cnc2scc(-c3ccc(Cl)cc3)c2c1=O | -6 | x | x | -17 | x | -62
CC(C)(C)S(=O)N1Cc2cn(Cc3ccccc3)c(=O)cc2[C@H]1CCO (stereo not given in full) | x | 0.1 | -5 | 5 | 30 | x
COc1ccc(/C=C/C(=O)C2CC2)cc1Cn1nc(C)c([N+](=O)[O-])c1C | -5 | 2.2 | -2 | 7 | 5 | -9
C/C(=N\NC(=O)c1n[nH]c2c1CCC2)c1cccs1 | -6 | -0.2 | 1 | 2 | 3 | -1
Cc1c(C(=O)N2CCOCC2)oc2ccc(Br)cc12 | -16 | 1.1 | 5 | -1 | -1 | 1
O=S(=O)(c1ccc(-c2cn3ccccc3n2)cc1)N1CCOCC1 | -17 | -0.2 | 1 | 1 | 6 | 6
CC(Cl)C(=O)Nc1c2c(nn1-c1ccccc1)CSC2 (stereo not given) | 1 | -0.7 | x | 5 | -3 | -4
Cc1ccc2occ(/C=N/NC(N)=S)c(=O)c2c1 | 4 | 3.8 | -6 | 0 | -9 | -19
CCN(CC)CCOC(=O)C(c1ccccc1)C1CCCCC1 (stereo not given) | x | 0.8 | -9 | -20 | 29 | -35
COc1ccc(C(=O)N2CCCC(CCC(=O)NCc3ccc(F)c(F)c3)C2)o1 (stereo not given) | 7 | 1.7 | 4 | 0 | 33 | -2
Cc1nn(C(C)(C)C)c(OC(=O)c2ccc3c(c2)OCO3)c1S(=O)(=O)c1ccccc1 | -10 | 0.9 | 1 | -5 | 16 | 6
O=C1CN(C(=O)COc2ccc(Br)cc2Br)c2ccccc2N1 | 3 | 3.9 | x | -2 | 15 | -9
C/C(=N\NC(=O)c1ccccc1)c1ccc2c(c1)OCO2 | -1 | -0.8 | -1 | -1 | -9 | -9

Looked up by structure from the list above (four):
SMILES | TRPV1 PAM | TRPML1 agonist | CtBP-E1A blk | Six1-Eya2 blk | TRPML1 inh | D2 PAM
C/C(=N\NC(=O)c1n[nH]c2c1CCC2)c1cccs1 | -6 | -0.2 | 1 | 2 | 3 | -1
Nn1cnc2scc(-c3ccc(Cl)cc3)c2c1=O | -6 | x | x | -17 | x | -62
C/C(=N/NS(=O)(=O)c1ccc(CC(C)C)cc1)c1ccncc1 | -11 | 0.7 | -3 | 1 | 10 | -11
CCn1c(=O)c(C(=O)NNS(=O)(=O)c2ccc(Cl)cc2)c(O)c2ccccc21 | 9 | 0.9 | 3 | -15 | 4 | -7

In the list so far, these contain four or more nitrogen atoms.
SMILES | TRPV1 PAM | TRPML1 agonist | CtBP-E1A blk | Six1-Eya2 blk | TRPML1 inh | D2 PAM
Cc1nc(/N=C(\N)NC(=O)c2ccccc2)nc2ccccc12 | 26 | -0.6 | u | u | 5 | -17
Cc1cccc2cc(CN(Cc3cccs3)Cc3nnnn3Cc3ccccc3)c(=O)[nH]c12 | 3 | 1.3 | 4 | -9 | 11 | -22
C/C(=N\NC(=O)c1n[nH]c2c1CCC2)c1cccs1 | -6 | -0.2 | 1 | 2 | 3 | -1

Other entries:
SMILES | TRPV1 PAM | TRPML1 agonist | CtBP-E1A blk | Six1-Eya2 blk | TRPML1 inh | D2 PAM
Cc1sc2ncnc(SCC(=O)N3CCC(c4noc5ccc(F)cc45)CC3)c2c1C | -5 | 0.6 | 3 | 9 | 45 | 1
COc1cccc(CN2CCNC(=O)C2CC(=O)NC2Cc3ccccc3C2)c1 (stereo not given) | -4 | 0.3 | -5 | -4 | -7 | -2
CC1CCCN(S(=O)(=O)c2ccc(NC(=O)CN3CCN(C)CC3)cc2)C1 (stereo not given) | 7 | 0.0 | 1 | 5 | -7 | -2
COc1ccc(NS(=O)(=O)c2c(C)n(C)c(=O)n(C)c2=O)cc1 | -5 | 0.0 | 2 | 3 | -3 | -3
Cc1ccc(NC(=O)c2noc3c2CCc2ccccc2-3)cc1 | 2 | 0.1 | 13 | 7 | -4 | -2
Nc1ccccc1C(=O)N(Cc1ccccc1)Cc1ccccc1 | 1 | 0.9 | 0 | 8 | 0 | -1
CCCn1nc2cc(C(=O)NCc3ccc(OC(F)(F)F)cc3)ccc2c1OCC | -11 | 1.1 | 1 | 8 | 6 | -6
CC(OCC(O)CN(C)Cc1nc2ccccc2c(=O)[nH]1)c1ccc(Cl)cc1 (stereo not given) | 5 | 0.4 | x | -4 | -24 | -48
O=c1[nH]c2ccccc2c2ccc(Cl)cc12 | x | 1.2 | -2 | -16 | 25 | -4
Cc1nnc2n1N=CC=C(C(C)(C)C)S2 | 6 | -0.7 | 7 | 2 | 0 | 1
CCCCCCSc1ccc(-c2nc3ccc(C)cn3c2NCc2ccccc2)cc1OC | 24 | 0.6&-0.3 | -2&0 | -8&-3 | -1 | -7
COc1ccc(NC(=O)COC(=O)CCSc2ccccc2)cc1 | x | 1.5 | -4 | 4 | 4 | 13
O=C(C[n+]1cc(-c2ccc(Cl)cc2)n2c1CCC2)Nc1nc(-c2ccc(F)cc2)cs1 | 4 | -0.8 | x | -7 | 7 | -27
COc1cc(C)ccc1OCC(=O)NC1CCCCCC1 | -19 | -0.1 | x | 29 | -2 | 0
CCCNS(=O)(=O)c1ccc2c(c1)n(C)c(=O)n2C | -2 | -0.1 | 17 | 16 | -15 | -6
CC(C)c1ccc(NC(=O)COC(=O)CSc2nnc(N)s2)cc1 | -34 | 0.0 | 14 | 5 | -12 | -10
Cc1cc(C)c(CSc2ncnc3nc[nH]c23)c(C)c1 | 3 | 0.6 | -1 | 0 | -20 | -2
CC1(C)CC(=O)/C(=C(\O)CCCN2C(=O)c3ccccc3C2=O)C(=NCCO)C1 | 6 | -0.5 | 5 | 1 | -6 | -6
COc1ccc(-c2cc(C(=O)NN)[nH]n2)cc1OC | 6 | -0.6 | 0 | -7 | 16 | -5
COc1ccc2c(c1)CCC1(C)CC(=O)C=C21 (stereo not given) | x | -0.2 | -2 | 13 | 1 | -12
CN1C(=O)c2ccccc2Sc2ccc(C(=O)O)cc21 | -4 | -0.2 | 5 | 3 | 15 | -4
COc1ccc(C(c2nnnn2CC2CCCO2)N2CCN(c3cccc(C)c3C)CC2)cc1 (stereo not given) | 15 | -0.3 | -13 | -21 | 5 | -16
C=CCNC(=O)c1cnc(-c2ccccc2)nc1-c1ccccc1 | 3 | -1.4 | 8 | 2 | -6 | -1
COC(=O)c1c(NC(=O)c2cccnc2)sc(C(=O)N(C)C)c1C | 12 | -0.6 | -3 | -19 | 0 | -2
CCOC(=O)c1sc(-c2ccccc2)cc1N | 14 | -0.8 | 13 | 10 | 9 | 11

Going on with the list.
SMILES | TRPV1 PAM | TRPML1 agonist | CtBP-E1A blk | Six1-Eya2 blk | TRPML1 inh | D2 PAM
Cc1ccc(/C(N)=N/OC(=O)CSc2ccccc2)cc1 | 18 | 0.4 | 11 | 12 | -11 | -7
O=C(O)c1cccc(NC(=O)c2ccc(Cl)c(S(=O)(=O)N3CCCCCC3)c2)c1 | 0 | 0.1 | x | 14 | 21 | -10
Cc1ccc(S(=O)(=O)Nc2ccc3c(c2)nc(C)n3C)cc1 | 7 | -0.2 | 3 | 0 | 26 | -2
COC(=O)c1cccc(C23CC4(C2)[C@H](CN(Cc2cccnc2)[C@@H]4c2ccccc2)C3c2ccc(C(F)(F)F)cc2)c1 (stereo not given in full) | -21 | 1.1 | -21 | -8 | 80 | -16
C=C(C)Cc1c(C)c(C#N)c2nc3ccccc3n2c1NCCCN(C)C | -4 | 0.2 | -13 | 1 | 12 | -26
N#C/C(=C\c1cccc(O)c1)c1nc2ccccc2o1 | -6 | 5.1 | -13 | -22 | u | 2
CC1(C)CCC(=O)N(c2ccc(OC(F)(F)F)cc2)C1=O | -4 | 0.2 | 0 | 2 | 17 | -8
NC(=O)COc1ccc(NC(=O)c2ccccc2-c2ccccc2)cc1 | -4 | 3.3 | 2 | 5 | 3 | -2
CCOC(=O)c1ccc(NC(=O)CSc2nnc(C3CC3)n2CC)cc1 | 18 | -0.8 | 0 | 1 | -3 | 2
COC(=O)N1CCCCC1c1cc(C(=O)NCc2ccc(F)cc2)no1 (stereo not given) | x | -1.1 | 4 | 4 | x | 1
COc1ccc(-n2c(SCC#N)nnc2-c2cccnc2)cc1 | -10 | 3.1 | 5 | 3 | -4 | -8
CN1C(=O)N(C)c2ccc(Br)c3cccc1c23 | -13 | 1.6 | x | -5 | 7 | -6
Cc1ccc(S(=O)(=O)N2CCOCC2)cc1C(=O)Nc1ccccc1N1CCOCC1 | 10 | 0.1 | 13 | -2 | -5 | -12
COC(=O)c1sc(N2C(=O)C(O)=C(C(=O)c3ccc(C)o3)C2c2ccco2)nc1C (stereo not given) | -2 | 2.1 | -1 | 3 | 4 | 16
Cc1ccc(C)c(S(=O)(=O)N2CCN(C(=O)Nc3ccccc3)CC2)c1 | -19 | 1.2 | -3 | -3 | 9 | -12
CCn1c2ccccc2c2cc(NC(=O)c3ccc([N+](=O)[O-])cc3)ccc21 | -25 | 1.0 | -7 | 0 | 30 | -32
O=C(COC(=O)c1ccc(O)cc1O)NC(=O)c1ccccc1 | x | 1.7 | 8 | -4 | -2 | -1
O=c1cc(CSc2nnc(-c3ccccc3)o2)c2ccccc2[nH]1 | 29 | 0.9 | 2 | 5 | 40 | -4
O=C(NCCC(=O)N(Cc1ccco1)Cc1cccs1)c1ccc([N+](=O)[O-])cc1 | -18 | 0.6 | 0 | -8 | 7 | 1
CN(C)c1ccc(/C=N/N=C2/NC(=O)/C(=C/c3ccc([N+](=O)[O-])cc3)S2)cc1 | 2 | 0.8 | -16 | -10 | 0 | -1
O=C(OCC(=O)N1N=C(c2ccc(Cl)cc2)CC1c1ccco1)c1ccco1 (stereo not given) | 2 | 0.3 | -13 | -19 | 4 | -8
Cc1ccc(NC(=O)C2(c3ccccc3)CCCC2)nc1 | x | -0.7 | 10 | 8 | 1 | -11
